Bioassay records (PubChem BioAssay)
Mtb MbtI inh = blocks the Mycobacterium tuberculosis siderophore enzyme MbtI; P9WFX0; purified MbtI enzyme, fluorescence intensity read-out; inhibition, %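 (about 17 µg/mL by stock and volumes)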; actives 0.89% (n = 100,000); AID 493033;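 active means above 50% in both replicates, above 80% if mildly self-fluorescent; inactive means the rest, strongly fluorescent compounds included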;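 further: 0% = mean of negative and 100% = mean of positive controls; one replicate is shown; some compounds called inactive have numbers as strong as hits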
Mtb MenB inh = inhibitors of Mycobacterium tuberculosis MenB enzyme. AID 540299. inhibition, %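 (about 12 µg/mL by stock and volumes)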. actives 0.43% (n = 100,000). MenB enzyme assay, absorbance read-out; some hits fall short of the stated cut. P9WNP5;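 active means mean of two replicates above 30%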;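 further: 0% = no compound and 100% = wells with inactive enzyme; the first replicate is given; strong numbers were not always called active; inactives centre near -10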
Target sequence (P9WNP5 whole entry, looked up): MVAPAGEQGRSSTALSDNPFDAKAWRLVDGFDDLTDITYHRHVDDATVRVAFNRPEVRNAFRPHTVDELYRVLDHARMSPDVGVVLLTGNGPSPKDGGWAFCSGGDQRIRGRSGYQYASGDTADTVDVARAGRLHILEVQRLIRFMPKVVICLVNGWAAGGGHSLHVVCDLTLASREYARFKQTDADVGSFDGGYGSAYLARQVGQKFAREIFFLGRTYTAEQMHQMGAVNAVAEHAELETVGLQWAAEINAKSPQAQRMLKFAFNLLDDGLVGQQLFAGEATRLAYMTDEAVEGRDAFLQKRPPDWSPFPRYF
PV pol inh = inhibitors of poliovirus RNA polymerase binding and polymerization; poliovirus polymerase elongation, fluorescence polarization; active compounds read low; actives 0.66% (n = 150,000); % elongation, % (compound at 16.7 µg/mL); in the data active means % elongation below about 90%; further: some results filed as inactive read as strong as hits
Target sequence (P03300 1749-2209 limits assumed): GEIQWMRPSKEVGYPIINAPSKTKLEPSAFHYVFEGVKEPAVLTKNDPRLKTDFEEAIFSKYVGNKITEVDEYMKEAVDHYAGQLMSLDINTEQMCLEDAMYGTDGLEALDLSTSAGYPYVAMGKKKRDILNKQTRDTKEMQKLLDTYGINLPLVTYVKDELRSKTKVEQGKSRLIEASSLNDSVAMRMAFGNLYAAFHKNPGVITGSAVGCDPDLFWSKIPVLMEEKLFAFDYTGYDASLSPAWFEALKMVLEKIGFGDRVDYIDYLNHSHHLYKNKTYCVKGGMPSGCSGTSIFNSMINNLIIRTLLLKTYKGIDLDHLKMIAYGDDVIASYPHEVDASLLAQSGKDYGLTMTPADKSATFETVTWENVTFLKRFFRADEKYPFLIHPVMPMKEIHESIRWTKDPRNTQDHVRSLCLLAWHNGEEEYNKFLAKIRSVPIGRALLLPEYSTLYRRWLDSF
PV pol inh intensity = recorded beside PV pol inh, whose call it bears; % elongation; measured here: total intensity read-out; formula for this scale not given here;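 total fluorescence in place of polarization; lower means less elongation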
* marks the source's active call; other numbers are inactive results; / = no result given. Compounds as they come; 1.9% or so of the library scored in one or more.

1: COc1ccccc1N1CCN(CCCCNC(=O)c2ccco2)CC1
2: O=C(CSc1ncn[nH]1)NCc1ccccc1
3: CCCCn1c(SCc2nnc(-c3cccs3)o2)nc2cc(S(N)(=O)=O)ccc21
4: Cc1c(C(=O)N2CCN(c3ccccc3F)CC2)sc2nc3n(c(=O)c12)CCCC3
5: Cc1cc(C)nc(NCC(O)CNc2ccccc2C)n1 (stereo not given)

screen / no.	1	2	3	4	5
Mtb MbtI inh	-11	-11	11	11	/
Mtb MenB inh	-6	-32	11	-13	-5
PV pol inh	102	98	98	104	101
PV pol inh intensity	101	104	97	106	95

6: Cc1c(C#N)c(N)nc(SCC(=O)c2cc3ccccc3oc2=O)c1C#N
7: CCOc1ccc2c(C)c(Cl)c(=O)oc2c1C
8: CN1C(=O)C(CC(=O)NCC2CCCCC2)SC1=Nc1ccccc1 (stereo not given)
9: c1ccc(CSc2nc3ncccc3o2)cc1
10: O=S(=O)(Nc1nonc1NS(=O)(=O)c1ccc(F)cc1)c1ccc(F)cc1

screen / no.	6	7	8	9	10
Mtb MbtI inh	9	-91	-2	8	/
Mtb MenB inh	-8	-32	-8	6	-11
PV pol inh	99	101	103	100	89
PV pol inh intensity	105	105	100	103	104

11: CN(CC(=O)Nc1ccc(F)cc1)C(=O)c1ccc2ccccc2n1
12: Cc1ccc(NC(=S)N(CCc2ccccc2)Cc2ccccc2)cc1
13: CC(Sc1nnc(-c2ccccc2)o1)C(=O)N(C)c1ccccc1 (stereo not given)
14: Nc1ncnc2c1ncn2CCNCCc1ccccc1
15: Nc1ncnc2c1ncn2[C@@H]1O[C@H](COP(=O)(O)O)[C@@H](O)[C@H]1O

screen / no.	11	12	13	14	15
Mtb MbtI inh	-12	1	-4	9	-14
Mtb MenB inh	-33	-79	-9	-9	2
PV pol inh	106	104	103	98	100
PV pol inh intensity	101	98	109	101	103

16: COCCNC(=O)Cc1nc2ccccc2n1CC(=O)NCc1ccc(Cl)cc1
17: O=S(=O)(c1ccc(F)cc1)N1CCCCC1
18: COc1cccc(C(=O)COC(=O)c2cncc(Br)c2)c1
19: CSc1nc2ccc(NC(=O)CCc3ccco3)cc2s1
20: COc1ccc(N=Cc2c(O)[nH]c3ccccc23)cc1

screen / no.	16	17	18	19	20
Mtb MbtI inh	47	-13	3	-8	-16
Mtb MenB inh	-13	-8	6	-27	-70
PV pol inh	101	103	100	102	101
PV pol inh intensity	93	102	103	104	102

21: Cn1nc(C(=O)OCc2cc(Cl)c3c(c2)OCO3)c2ccccc2c1=O
22: Cc1cc(NCc2ccccc2)nc(-c2ccccc2O)n1
23: O=C(Nc1ccccc1)N1CCCC1c1cccs1 (stereo not given)
24: O=C(CSC1=NCCS1)N1CCCCCC1
25: CN(C(=O)Cn1nnc2ccccc2c1=O)C1CCCc2ccccc21 (stereo not given)

screen / no.	21	22	23	24	25
Mtb MbtI inh	11	19	2	15	-5
Mtb MenB inh	-22	-61	-2	11	-27
PV pol inh	101	102	103	99	111
PV pol inh intensity	104	102	110	107	120

26: N#Cc1c(SCC(N)=O)nsc1SCC(N)=O
27: COc1ccc(C(=O)COC(=O)/C=C/c2cccc(C(F)(F)F)c2)cc1
28: COc1ccccc1NC(=O)Cn1nc(C(F)(F)F)n(N)c1=S
29: COC(=O)c1ccccc1C(=O)N1CCOCCOCCOCC1
30: Cc1ccc(S(=O)(=O)c2[nH]c(=S)sc2N2CCOCC2)cc1

screen / no.	26	27	28	29	30
Mtb MbtI inh	2	-7	/	-5	93*
Mtb MenB inh	15	/	-2	-10	-37
PV pol inh	99	104	93	103	/
PV pol inh intensity	100	109	86	102	/

31: Cc1onc(-c2ccccc2Cl)c1C(=O)OCC(F)(F)F
32: O=S(=O)(NCCc1ccc(Cl)cc1)c1ccc(F)c(F)c1
33: Cc1ccc(C(=O)SC2=NCCS2)cc1
34: Cc1cc(C)nc(/N=C2\NC(=O)CC3C(=O)NCCN23)n1 (stereo not given)
35: CCC1Oc2ccc(C)cc2N(CC(=O)NC2CCCCCCC2)C1=O (stereo not given)

screen / no.	31	32	33	34	35
Mtb MbtI inh	-4	-13	3	5	-20
Mtb MenB inh	-21	/	/	-22	-28
PV pol inh	103	101	99	102	100
PV pol inh intensity	104	101	99	103	102

36: Cc1ccc(-c2cc(C(=O)N(C)C3CCCCC3)[nH]n2)cc1C
37: CCN=C1S/C(=C2\C(=O)N(C(C)=O)c3ccccc32)C(=O)N1CC
38: O=C(CSc1n[nH]c(=O)[nH]c1=O)Nc1ccccc1C(=O)c1ccccc1
39: NC(=O)Nc1ccc(C(=O)OCC(=O)N(Cc2ccccc2)C2CCS(=O)(=O)C2)cc1 (stereo not given)
40: CCOc1ccc(-c2cc(C(=O)N3CCc4ccccc4C3)c3ccccc3n2)cc1

screen / no.	36	37	38	39	40
Mtb MbtI inh	4	4	-17	13	64
Mtb MenB inh	-37	10	-8	-16	-11
PV pol inh	102	99	106	/	105
PV pol inh intensity	103	102	111	/	97

41: CC(=O)Nc1ccc(SCc2csc(C)n2)cc1
42: CCC(C)Oc1ccc(/C=C2/NC(=O)NC2=O)cc1Br (stereo not given)
43: NC(Cc1ccc(OC(F)(F)C(F)(F)F)cc1)C(=O)O (stereo not given)
44: O=C(NC1=NCCS1)C1c2ccccc2Oc2ccccc21
45: NC(=O)C1CCCN(C(=O)Nc2ccc(F)cc2)C1 (stereo not given)

screen / no.	41	42	43	44	45
Mtb MbtI inh	-4	-16	-4	27	-11
Mtb MenB inh	-5	5	/	9	-11
PV pol inh	122	103	102	107	106
PV pol inh intensity	132	105	104	109	104

46: CCN1/C(=C/c2ccc3ccccc3[n+]2CC)Sc2cc(NC(C)=O)ccc21
47: CCC1C(=O)N=C(SCC(=O)Nc2cccc3ccccc23)NC1=O (stereo not given)
48: CN(C)Cc1ncccc1O
49: COc1ccc(CCN2C(=S)N(c3cccc(C(F)(F)F)c3)C(=O)C2CC(N)=O)cc1OC (stereo not given)
50: O=C1CC(SCCc2nc3ccccc3[nH]2)C(=O)N1c1ccc(F)cc1 (stereo not given)

screen / no.	46	47	48	49	50
Mtb MbtI inh	-2	53	5	/	38
Mtb MenB inh	-22	-21	-18	-3	-18
PV pol inh	106	98	101	101	100
PV pol inh intensity	107	96	95	96	101

51: Cc1ccc(NC(=S)N2CCCC(c3ccccc3)=N2)cc1
52: COc1ccc(NCCC(=O)O)cc1
53: CC(NC(=O)CS(=O)(=O)c1ccccc1)c1ccccc1 (stereo not given)
54: CC1=Nc2cc(C(=O)O)ccc2Sc2ccc(Br)cc21
55: Cn1cc(S(=O)(=O)c2ccc(Cl)cc2)c(=O)c2cc(F)ccc21

screen / no.	51	52	53	54	55
Mtb MbtI inh	-7	-16	-6	-8	-8
Mtb MenB inh	-13	/	-36	-14	-6
PV pol inh	102	105	105	104	105
PV pol inh intensity	106	108	100	105	107

56: O=C(COc1cccc2cccnc12)c1ccccc1
57: CSc1nnc(C)n1Cc1ccccc1
58: NC(=O)C1CCN(C(c2ccccc2)c2sc3ncnn3c2O)CC1 (stereo not given)
59: CC(=O)Nc1ccc(C(=O)OC2CCCCC2)cc1
60: Cc1cccc(N2C(=O)CS/C2=N/NC(=O)c2cccc(Cl)c2)c1

screen / no.	56	57	58	59	60
Mtb MbtI inh	-11	-110	-2	-21	4
Mtb MenB inh	-30	7	-15	0	-45
PV pol inh	121	107	105	100	105
PV pol inh intensity	134	110	98	103	100

61: COc1ccc(OCCN2CCN(S(=O)(=O)c3ccc(Cl)s3)CC2)cc1
62: COc1cccc(NC(=O)COc2ccccc2OC)c1
63: CN(Cc1ccccc1)C(=O)COc1ccccc1
64: C=CCn1c(C)cc(C(=O)Cn2c(C)nc3cc4c(cc32)OCCO4)c1C
65: COc1ccc2[nH]c(=O)c(C(c3nnnn3Cc3ccccc3)N(C)C3CCCCC3)cc2c1 (stereo not given)

screen / no.	61	62	63	64	65
Mtb MbtI inh	-11	/	/	2	-18
Mtb MenB inh	-22	-4	-21	-23	7
PV pol inh	108	104	95	106	103
PV pol inh intensity	111	111	99	108	104

66: Cc1cc(C(=O)OCC(=O)NCc2ccccc2)c(C)o1
67: CCOC(=O)c1c(C)oc2ccc(OCC(=O)C(C)(C)C)cc12
68: S=C1NC(=S)NC(c2ccc3c(c2)OCO3)N1
69: COc1cccc(N2CCN(Cc3ccsc3)CC2)c1
70: CNC(=S)Nc1cccc(C(F)(F)F)c1

screen / no.	66	67	68	69	70
Mtb MbtI inh	-7	0	15	-1	-11
Mtb MenB inh	/	7	-1	3	-1
PV pol inh	98	102	100	101	95
PV pol inh intensity	99	102	104	98	102

71: FC(F)Oc1ccc(/C=N/N2CCOCC2)c(OC(F)F)c1
72: CCCCN(Cc1ccccc1)Cc1ccccc1O
73: COc1cc(C(=O)OCc2nnc(-c3ccc(Cl)cc3)o2)cc(CN2C(=O)c3ccccc3C2=O)c1OC
74: CN1C/C(=C/c2ccc3c(c2)OCCO3)C(=O)/C(=C/c2ccc3c(c2)OCCO3)C1
75: COC(=O)Cn1c(=O)c(C)nc2ccccc21

screen / no.	71	72	73	74	75
Mtb MbtI inh	-3	-9	-2	11	89
Mtb MenB inh	-17	-12	-24	-50	-4
PV pol inh	104	104	103	107	99
PV pol inh intensity	104	103	107	101	101

76: Nc1nc2ccc(NC(=O)C3CCC(C(=O)O)CC3)cc2s1 (stereo not given)
77: COc1cc(-c2c(C#N)c(SCC#N)nc(N)c2C(=O)OC(C)C)cc(OC)c1OC
78: CCC(C)NC(=O)c1ccc2cn[nH]c2c1 (stereo not given)
79: CCN1CCN(C(=O)c2cc(-c3ccccc3O)no2)CC1
80: CC(C)(C)NC(=O)NCC1CCCC1NC(=O)NC(C)(C)C (stereo not given)

screen / no.	76	77	78	79	80
Mtb MbtI inh	19	/	91	-4	-11
Mtb MenB inh	10	-35	-6	0	3
PV pol inh	102	102	100	102	102
PV pol inh intensity	101	110	101	102	103

81: CN(C)CCNc1nc(S(=O)(=O)c2ccccc2)c(Cl)s1
82: O=C(NCCNc1ccc(C(F)(F)F)cn1)Nc1ccccc1Cl
83: Cc1ccc(S(=O)(=O)NC2=NCCC2)cc1
84: CC(C)=CCOc1ccc2c3c(c(=O)oc2c1)CCC3
85: COC(=O)c1cc(-c2cocc2C=C(C#N)C#N)ccc1Cl

screen / no.	81	82	83	84	85
Mtb MbtI inh	18	4	-6	2	-10
Mtb MenB inh	-21	10	/	-28	-43
PV pol inh	104	99	104	102	90
PV pol inh intensity	104	104	109	103	121

86: CC(C)NC(=O)CCCc1nc(-c2ccccc2)no1
87: CCCc1cc(=O)[nH]c(/N=C(\N)Nc2cccc(C(F)(F)F)c2)n1
88: N#CC(=C1SCCCCS1)S(=O)(=O)c1ccc(Cl)cc1
89: CC(NC(=O)COc1ncnc2ccccc12)C1CC2CCC1C2 (stereo not given)
90: CCOC(=O)c1cccc(N(C(=O)Cn2nnc3ccccc32)C(C(=O)NCC2CCCO2)c2nc3ccccc3n2C)c1 (stereo not given)

screen / no.	86	87	88	89	90
Mtb MbtI inh	-12	6	-2	-2	-5
Mtb MenB inh	-2	6	-6	/	-21
PV pol inh	103	100	106	100	102
PV pol inh intensity	106	99	107	107	103

91: CCN(c1cccc(C)c1)S(=O)(=O)c1ccc2c(c1)C(=C(C)C)C(=O)N2
92: CC1(C)Cc2nc3sc4c(=O)n(CC(=O)NCc5ccco5)cnc4c3cc2CO1
93: CC(=O)N(C)c1ccc(NC(=O)c2sc3ccccc3c2Cl)cc1
94: CC1CC(C)CN(C(=O)COC(=O)/C=C/c2cccc(F)c2)C1 (stereo not given)
95: CC1CCN(c2nn3c(N)c(/C=C4\C=Nc5ccccc54)c(=O)nc3s2)CC1

screen / no.	91	92	93	94	95
Mtb MbtI inh	6	8	6	2	5
Mtb MenB inh	7	-16	/	-18	-8
PV pol inh	101	103	102	103	100
PV pol inh intensity	102	105	106	107	96

Molecules shown so far with two or more sulfur atoms (12):
3: CCCCn1c(SCc2nnc(-c3cccs3)o2)nc2cc(S(N)(=O)=O)ccc21
10: O=S(=O)(Nc1nonc1NS(=O)(=O)c1ccc(F)cc1)c1ccc(F)cc1
19: CSc1nc2ccc(NC(=O)CCc3ccco3)cc2s1
24: O=C(CSC1=NCCS1)N1CCCCCC1
26: N#Cc1c(SCC(N)=O)nsc1SCC(N)=O
30: Cc1ccc(S(=O)(=O)c2[nH]c(=S)sc2N2CCOCC2)cc1
33: Cc1ccc(C(=O)SC2=NCCS2)cc1

screen / no.	3	10	19	24	26	30	33
Mtb MbtI inh	11	/	-8	15	2	93*	3
Mtb MenB inh	11	-11	-27	11	15	-37	/
PV pol inh	98	89	102	99	99	/	99
PV pol inh intensity	97	104	104	107	100	/	99

41: CC(=O)Nc1ccc(SCc2csc(C)n2)cc1
61: COc1ccc(OCCN2CCN(S(=O)(=O)c3ccc(Cl)s3)CC2)cc1
68: S=C1NC(=S)NC(c2ccc3c(c2)OCO3)N1
81: CN(C)CCNc1nc(S(=O)(=O)c2ccccc2)c(Cl)s1
88: N#CC(=C1SCCCCS1)S(=O)(=O)c1ccc(Cl)cc1

screen / no.	41	61	68	81	88
Mtb MbtI inh	-4	-11	15	18	-2
Mtb MenB inh	-5	-22	-1	-21	-6
PV pol inh	122	108	100	104	106
PV pol inh intensity	132	111	104	104	107
